# VACV Venus inh = vaccinia inhibition (Venus reporter); 0.46% of 330,000 active; Vaccinia virus Venus reporter expression, fluorescence; Potency, µM (doses to about 36.5 µM), for the others: at the highest dose activity change, negative = inhibition, actives largely listed as inhibitors; active means well fitted inhibition curve with a large enough effect; inconclusive means small, poorly fitted or top-dose-only effect; inactive means no such curve, though single readings can be large or run the other way; tested in A549 cells; also: nearly all actives have a fitted effect of over 30% in size; inactives centre near -10
# VACV mCherry inh = vaccinia inhibition (mCherry reporter). 0.63% of 310,000 active. Vaccinia virus mCherry reporter infection, fluorescence; about a quarter of the inactives have no number. Potency, µM (doses to about 36.5 µM), for inactives: top-dose activity change, negative = inhibition, usual class: inhibitors; active = well fitted inhibition curve with a large enough effect; inconclusive = small, poorly fitted or top-dose-only effect; inactive = no such curve, though single readings can be large or run the other way; tested in A549 cells; also: nearly all actives have a fitted effect of over 35% in size; inactives centre near -10
# Numbers without * were called inactive; i = inactive; ? = inconclusive; nt = not tested or not shown; & = joins results of further samples; [ ] = remark or other dose. % is scaled to controls: 0 for no effect and ±100 for the full control effect; potency is read from the fitted curve at half-maximal effect.
SMILES,VACV Venus inh,VACV mCherry inh
COC(=O)N/N=C/c1ccc(-c2ccc(C)c(Cl)c2)o1,-28%,-5%
COc1ccc(O)c(C(=O)c2cnc3c(c2)c(-c2ccc(F)cc2)c(C#N)c(=O)n3C)c1,-18%,-14%
C=CCn1c(O)c(N=NC(=O)CNC(=O)/C=C/c2ccc(OC)cc2)c2ccccc21,-16%,-17%
CC1Sc2ccccc2N(Cc2ccc(OC(F)(F)F)cc2)C1=O (centres undefined),-5%,34%[activator]
Cc1ccc(OCCCC(=O)Nc2cc(S(=O)(=O)N3CCOCC3)ccc2N2CCOCC2)cc1,-13%,-14%
O=C1CCC(C(=O)N2CCC(CCO)CC2)CN1Cc1ccc(Cl)cc1 (centres undefined),-11%,i
Cc1ccc(CSCC(=O)Nc2cc(S(=O)(=O)N3CCOCC3)ccc2OCC(F)(F)F)cc1,-20%,?
COc1ccccc1C1(CCNS(=O)(=O)c2ccc(C)cc2)CCOC(C(C)C)C1 (centres undefined),-25%,-19%
CCN(CC)CCNC(=O)Cn1nc(Cc2cccnc2)c2ccccc2c1=O,-8%,i
O=C(c1ccccc1)c1c[nH]c(C(=O)NCCCn2ccnc2)c1,-27%,nt
CCCN1C(C)C(C(=O)OCC)=CN(Cc2ccc(Br)cc2)S1(=O)=O (centres undefined),-19%,-7%
Cc1ccc(N(C(C)C(=O)NCc2ccncc2)S(C)(=O)=O)cc1C (centres undefined),-21%,-26%
O=C1c2ccccc2NC(c2cnc3ccccc3n2)N1O (centres undefined),-13%,-19%
CCN(Cc1ccccc1)C(=O)C1CCN(C(=O)Nc2ccccc2)CC1,-14%,-12%
O=C(Nc1ccccc1C(=O)NC1CCCCC1)c1ccco1,-19%,nt
Cc1noc(C)c1NC(=O)N(C)C[C@H]1Oc2ccc(NC(=O)CCC(F)(F)F)cc2C(=O)N([C@H](C)CO)C[C@@H]1C,-10%,i
CC(=O)Nc1cccc2c1C(=O)N(c1ccccc1OC(C)=O)C2=O,-16%,?
O=C(c1ccc2c(c1)OCCO2)N1CCN(c2ncc(C(F)(F)F)cc2Cl)CC1,-21%,-29%
Cc1ccnc(NC(=S)NC(=O)c2cccs2)c1,-23%,-28%
Cc1cc(OC(=O)c2ccccc2Cl)ccc1N1C(=O)CCC1=O,-18%,-27%
O=C(C[n+]1ccccc1)NNc1ccccc1,-10%,-4%
CN1C(=O)CC(C(=O)Nc2ccc(F)cc2)SC1=Nc1ccc2c(c1)OCO2 (centres undefined),-14%,i
Cc1cccc(NC(=O)N2CCC(CN3CCOCC3)CC2)c1C,8%,-13%
C=CCNC(=O)C(=O)NCC(c1ccc2c(c1)OCO2)N1CCN(c2ccc(F)cc2)CC1 (centres undefined),-12%,i
O=C1NC2(CCCCC2)C(=O)N1CCS(=O)(=O)Oc1ccc(Br)cc1,-20%,-3%
CC(C)OC(=O)c1c(NC(=O)C2CC=CCC2C(=O)O)sc2c1CCCCC2 (centres undefined),-14%,-2%
CC(C)C[C@H]1CN(CCCC[C@@H]2CNC(=O)C(=O)N2CC2CCCCC2)C(=O)C(=O)N1CC1CCCCC1,-2%,1%
O=C(CSc1nnc(-c2ccccc2Cl)o1)Oc1ccc(Br)cc1,-7%,-11%
O=C(OCCN1CCCC1=O)c1cncc(Br)c1,-10%,-12%
COC(=O)C1=C(C)Nc2c(c(=O)n(C)c(=O)n2C)C1c1ccncc1 (centres undefined),-9%,i
C(=N\N1CCN(Cc2ccccc2)CC1)/c1cccnc1,-8%,-7%
O=C(O)CN1C(=O)/C(=C\c2cc(Br)ccc2OCc2ccccc2Cl)SC1=S,-3%,i
O=C(O)CC1(CC(=O)Nc2ccccc2Br)CCCC1,0%,6%
CCCCc1cc(=O)oc2cc(OCC(=O)N3CCC(C(=O)O)(c4ccccc4)CC3)ccc12,-14%,1%
Cn1ccnc1C(=O)c1cc(=O)c2ccccc2o1,1%,-13%
O=C(CSc1nc2ccccc2c(=O)n1-c1ccccc1)NC(=O)CN1CCCC1=O,5%,10%
CCc1ccc(CN2CCC(C(=O)Nc3cccc(-c4nnc(C)s4)c3)CC2)o1,-25%,-2%
Cc1cccc(N2CCN(C(=O)c3cc4n(n3)C(C(F)(F)F)CC(c3ccco3)N4)CC2)c1C (centres undefined),?,nt
CN1[C@@H](CC(=O)c2ccccc2)CCC[C@H]1C[C@H](O)c1ccccc1,-20%&-12%&-13%,-4%&-13%
N#CC(C#N)=c1ccc2c(c1)NC1(CCCCC1)N=2,-36%,-25%

# Another view of part of the listing above.
Structure	VACV Venus inh	VACV mCherry inh
Cc1cccc(NC(=O)N2CCC(CN3CCOCC3)CC2)c1C	8%	-13%
C=CCNC(=O)C(=O)NCC(c1ccc2c(c1)OCO2)N1CCN(c2ccc(F)cc2)CC1 (centres undefined)	-12%	i
O=C1NC2(CCCCC2)C(=O)N1CCS(=O)(=O)Oc1ccc(Br)cc1	-20%	-3%
CC(C)OC(=O)c1c(NC(=O)C2CC=CCC2C(=O)O)sc2c1CCCCC2 (centres undefined)	-14%	-2%
CC(C)C[C@H]1CN(CCCC[C@@H]2CNC(=O)C(=O)N2CC2CCCCC2)C(=O)C(=O)N1CC1CCCCC1	-2%	1%
O=C(CSc1nnc(-c2ccccc2Cl)o1)Oc1ccc(Br)cc1	-7%	-11%
O=C(OCCN1CCCC1=O)c1cncc(Br)c1	-10%	-12%

# Further entries follow:
SMILES,VACV Venus inh,VACV mCherry inh
COc1cccc(/C=C/c2onc(C)c2S(=O)(=O)N2CCC(C(=O)N3CCC(C)CC3)CC2)c1,0%,-5%
COc1ccccc1C(=O)N/C(=C\c1cn(C)c2ccccc12)C(=O)NCCN1CCOCC1,-13%,?
CCOC(=O)CNC(=O)c1nn(-c2cccc(OC)c2)c(=O)c2ccccc12,-10%,nt
Cn1c(=O)c2cc(NC(=O)NCc3ccc(F)cc3)ccc2n1C,-7%,20%
CCN1C[C@@H]2[C@@H]3C(=O)N(C)C(=O)[C@@H]3[C@](CC)(C(=O)OC)N2C1=NC,-1%,-8%
COCCNC(=O)C1(C)CCCN(Cc2ccc(-c3ccccn3)cc2)C1 (centres undefined),-9%,43%[activator]
COc1cccc(CNC(=O)CN2C(=O)CCCc3ccccc32)c1OC,-10%,-14%
Cc1cccc(-n2ncc3c2CCCC3NC(=O)C2=CC(=O)CC(C)(C)O2)c1C (centres undefined),-13%,-8%
CCOC(=O)c1nn(-c2ccccc2C)c(=O)c(C#N)c1C,0%,-5%
CC1CN(CC(O)c2ccc(Br)cc2)CCO1 (centres undefined),3%,-12%
COc1cc2c(cc1OC)C[N+](C)(C)CC2,-3%,-7%
O=C(NCc1cccnc1)c1ccc(N2CCOCC2)c([N+](=O)[O-])c1,4%,i
NNC(=O)c1ccc(OCC2CC(c3ccc(Cl)cc3)=NO2)cc1 (centres undefined),?,-26%
CCn1cc(S(=O)(=O)c2ccc(OC)cc2)c(=O)c2cc(F)c(N3CCN(C)CC3)cc21,-24%[7.34 µM],i[7.34 µM]
S=c1[nH]ncn1/N=C/c1ccco1,-4%,i
COc1ccc(-n2nc3ccc(NC(=O)c4cccc(OCCC(C)C)c4)cc3n2)cc1,-11%,-7%
COc1ccc(OC)c(NC(=O)c2c(NCc3ccc(OC)c(OC)c3)sc3c2CCC(C)C3)c1 (centres undefined),-24%,-24%
Cn1c2c(c3ccccc31)CCN=C2c1ccccc1,-7%,i
Cc1cc(C)cc(NC(=O)c2cc(S(=O)(=O)N3CCCCCC3)cn2C)c1,4%,5%
CC(C)(C)c1ccc(C(=O)NNC(=O)C(=O)N2CCCCC2)cc1,-9%,-14%
CCOC(=O)N1CCN(C(=O)c2cn(CC)c3ccc(S(=O)(=O)N4CCC(C)CC4)cc3c2=O)CC1,-5%,i
Cc1ccc(C)c(N2CCN(C(=O)CCc3nc(-c4ccccc4Br)no3)CC2)c1,-6%,i
CCN(C(=O)CN1CCN(c2ccccc2)CC1)c1c(N)n(Cc2ccccc2)c(=O)[nH]c1=O,-7%,-21%
C1CN(CC2COC(CN3CCOCC3)CO2)CCO1 (centres undefined),14%,-5%
CC1(c2ccccc2)CC(C)(C)N2C(=O)C(=O)c3cccc1c32 (centres undefined),-19%,-13%
CCn1c(C)c(C(=O)O)c2cc(OC)ccc21,5%,nt
CCCN(CCC)S(=O)(=O)c1ccc(C(=O)OCCN2C(=O)c3cccc4c(N5CCOCC5)ccc(c34)C2=O)cc1,-7%,i
Clc1ccc2nc(-c3ccco3)c(Cc3ccccc3)n2c1,-4%,16%
CCOc1ccc(-c2cc(C(=O)NCCCOC)c3c(-c4ccc(CC)cc4)[nH]nc3n2)cc1,-3%,-12%
COc1ccc(CNc2cc(C)ccn2)c(O)c1,-4%,?
CC1S/C(=C(\C#N)C(=O)NCc2ccco2)N(Cc2ccco2)C1=O (centres undefined),10%,nt
N#CC1=C(N)Oc2n[nH]c(-c3cccs3)c2C1c1ccco1 (centres undefined),11%,nt
CCOC(=O)C1CCN(c2cc(=O)n(C3CCCCC3)c(=O)[nH]2)CC1,-15%,-15%[1.46 µM]
O=C(CSc1cn(CC(=O)N2CCCCC2)c2ccccc12)NCC1CCCO1 (centres undefined),-5%,-14%
O=C(C[n+]1cccc(Br)c1)c1ccc(Br)cc1,-15%,i
Cc1nc(C(=O)NCc2ccccc2)sc1C1(C)CC(c2ccccc2)=NO1 (centres undefined),-25%,15%
Cc1cc(C)c(NC(=O)CSc2nnc(-c3ccccn3)n2N)c(Cl)c1,13%,12%
CCOc1ccc(NC(=O)CCS(=O)(=O)c2ccc(C)cc2)cc1,-13%,-14%
C=CCn1cc(-c2cccc(Cl)c2)cc(C#N)c1=O,-14%,i
N#Cc1c(-c2ccccc2)nc(SCc2ccc(Cl)cc2)[nH]c1=O,-16%,-21%

# Already shown: entries from further up.
SMILES,VACV Venus inh,VACV mCherry inh
CCOC(=O)N1CCN(C(=O)c2cn(CC)c3ccc(S(=O)(=O)N4CCC(C)CC4)cc3c2=O)CC1,-5%,i
Cc1ccc(C)c(N2CCN(C(=O)CCc3nc(-c4ccccc4Br)no3)CC2)c1,-6%,i

# New compounds follow:
SMILES,VACV Venus inh,VACV mCherry inh
CCOC(=O)N1CCN(C(=O)CSC2=NS(=O)(=O)c3cc(F)ccc3N2)CC1,3%,i
COc1ccc(CC(N)c2csc(NC(=O)Nc3cc(OC)ccc3OC)n2)cc1 (centres undefined),?,?
CC(=O)Nc1nonc1-c1nnc(SCc2ccccc2F)n1C,-5%,1%
COCCCNC(=O)CN1C(=O)c2c(c3ccccc3n2C)C1c1ccc(OC)cc1 (centres undefined),-12%,i
O=C(Nc1cc(Cl)ccc1-n1cncn1)c1ccc(F)c(S(=O)(=O)N2CCOCC2)c1,-11%,-14%
CCc1nc(N2CCOCC2)c(C#N)c2c1COC(C)(C)C2,-16%,nt
Cc1ccnc(N2C(=O)c3ccccc3C2Nc2cccc(C)c2C)c1 (centres undefined),18%,-22%
COc1ccccc1/C=C(\NC(=O)c1ccc(OC)c(OC)c1)C(=O)Nc1cccc([N+](=O)[O-])c1,-14%,i
Cc1cccc(OCC(=O)Nc2ccc3oc(=O)ccc3c2)c1C,-3%,-11%
Cn1c(=O)cc(N2CCc3ccccc32)[nH]c1=O,-10%,-30%
Cc1ccc(-n2nc3c(=O)n(C(C)C(=O)O)nc(C)c3c2C)cc1 (centres undefined),-9%,-3%
CCOC(=O)C1(C)CCCCCN1C(=O)c1snnc1C (centres undefined),7%,25%
Cc1ccc(CSc2nc3ccncc3n2CC(=O)Nc2cc(C)cc(C)c2)cc1,-17%,10%
COc1ccc(Cl)cc1Nc1nc(Cl)nc(NCCO)n1,-14%,i
CCCCP(=O)(CCCC)CCP(=O)(c1ccccc1)c1ccccc1,-5%,-6%
COCCN(C(=O)COC(=O)C1CCCCC1)c1c(N)n(Cc2ccccc2)c(=O)[nH]c1=O,-2%,i
CCOC(=O)c1ccc(CN(Cc2ccc(Cl)cc2Cl)S(=O)(=O)c2cccc(Cl)c2)cc1,-13%,-8%
CCn1c2ccccc2c2cc(CN3CCN(Cc4cc(OC)c(O)c(OC)c4)CC3)ccc21,?,-6%
Cc1cc2ccccn2c1C(=S)NC(=O)c1ccccc1,-8%,-1%
COc1ccc(CNC(=O)[C@H](C)NC(=O)N2CCn3c2nc2ccccc23)cc1,?,-29%
Cc1[nH]c2ccccc2c1C(=O)COC(=O)Cn1c(C)nc2ccccc21,-23%,-18%
Cc1ccc([N+](=O)[O-])cc1N(CC(=O)Nc1ccc(S(=O)(=O)Nc2cccc(C(F)(F)F)c2)cc1)S(C)(=O)=O,?,?
COCCNC(=O)c1cc2c(Br)ccc(Br)c2nc1N,-6%,10%
Cc1ccc(-n2c(-c3ccncc3)nnc2-c2ccco2)cc1,-15%,i
O=C(N/N=C1/CC(c2ccccc2)Oc2ccccc21)C1CC1 (centres undefined),-6%,-12%
COc1nc(-c2ccc(C)cc2)ccc1-c1noc(-c2ccc(C(C)(C)C)cc2)n1,4%,14%
Cc1ccc(C)c(C(=O)CCC(=O)NNC(=O)c2cccs2)c1,2%,-19%
CCc1ccc(OCc2ccc(C(=O)O)o2)cc1,-12%,i
CCc1nnc(NC(=O)c2cccs2)s1,4%,9%
CCOC(=O)c1sc(NC(=O)c2cc(CC)on2)c(C(=O)OCC)c1C,-4%,-11%
COc1cc2c(cc1OC)-c1cc3ccc(OC)c(OC)c3c[n+]1CC2,-17%&-15%,-13%&-17%
CCOC(=O)c1c(C)[nH]c(C)c1C(=O)CSc1nnnn1-c1ccccc1,-11%,-14%
CCOC1=C/C(=C/c2c(N)n3nc(-c4ccccc4)sc3nc2=O)C=CC1=O,-6%,-14%
CNc1nc(-c2ccc3c(c2)CCN3C(=O)c2ccccc2C)cs1,-10%,?
Cc1ccc2nc(SCC(=O)Nc3cc([N+](=O)[O-])ccc3F)[nH]c2c1,-25%,i
